TAR Tat displ: HIV-1 TAR-Tat binding disruption. HIV-1 TAR RNA, Tat peptide displacement FRET; stronger effect = higher value. actives 0.6% (n = 100,000). z-score (no concentration beside the values). AID 1259389;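 also: score is relative to mean and SD of negative controls; some compounds called inactive have numbers as strong as hits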
CDC25B-CDK2 inh: human CDC25B-CDK2/CyclinA binding inhibition. HTRF CDC25B-CDK2/CyclinA binding, anti-His/anti-Flag; stronger effect = higher value. AID 1259370. z-score (no concentration beside the values). P30305+P24941. actives 0.72% (n = 94,000);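 also: score is relative to mean and SD of negative controls; strong numbers were not always called active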
* = called active by the depositor; . = not tested or not shown.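 The calls were made as follows: active = z-score from 3 up in half or more of its runs; inactive = the rest.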

Results follow in this order: TAR Tat displ | CDC25B-CDK2 inh
CCCNC(=O)Cn1ncn2c(cc3sc(C)cc32)c1=O
→ . | -2.5
Cc1sc2ncnc(Oc3ccc4ccc(=O)oc4c3)c2c1C
→ . | -0.44
CCOC(=O)N1CC(C)N(C(=O)OCC)CC1C (centres undefined)
→ 3 | -1.3
Cc1cc(=O)n2nc(N3CCCC(C(=O)N4CCN(c5ccccc5)CC4)C3)sc2n1 (centres undefined)
→ 1.8 | 0.93
COc1cccc(C2Nc3ccc(C)cc3-c3cc(C)nn32)c1OC (centres undefined)
→ 0.49 | -0.34
Cc1cc(=O)n2nc(N3CCCC(C(=O)NCCCN4CC(C)CC(C)C4)C3)sc2n1 (centres undefined)
→ 1.5 | 0.14
CCc1nc(-c2csc(S(=O)(=O)Nc3ccc(OC)cc3OC)c2)no1
→ 0.17 | .
CCN1CCC2(CC1)OC(=O)C(C)=C2C(=O)NCCc1cccs1
→ 2.1 | .
CCC1(c2cccc(OS(=O)(=O)c3cc(C)c(Cl)cc3Cl)c2)CCCCN(C)C1=O (centres undefined)
→ . | -0.33
Cc1cc(C)c(-c2c(NCCCN(C)Cc3ccccc3)c(=O)c2=O)cc1C
→ 0.93 | .
CN(CC(=O)NCCc1ccc(S(N)(=O)=O)cc1)S(=O)(=O)c1ccc2c(c1)CCC(=O)N2
→ . | -0.99
CCCc1c(C(=O)Nc2cc(-c3ccccc3)nn2C)cnn1-c1ccccc1
→ . | -1.4
COc1ccc(-c2nc3c4c(C)c(C)n(-c5ncccc5C)c4ncn3n2)cc1
→ 0.75 | -1.1
Cc1ccccc1C1CC(c2cccc(NS(C)(=O)=O)c2)=NN1C(=O)c1ccco1 (centres undefined)
→ . | -2.6
Cc1ccc(-c2cn3nc(C4CC4)sc3n2)cc1
→ 1.2 | 0.73
O=C(NCc1ccco1)NCc1cccn1Cc1cccc(F)c1
→ -0.82 | .
CCSc1nnc(NC(=O)CCN2C(=O)C3C4C=CC(C4)C3C2=O)s1 (centres undefined)
→ . | -0.2
Cc1cc(C)cc(NC(=O)CSCc2cc(=O)n3nc(C4CC4)sc3n2)c1
→ -0.29 | .
CCOC(=O)Cn1c(=O)n(CC2CCCO2)c2nc(-c3ccccc3F)nc(C(N)=O)c21 (centres undefined)
→ 0.31 | .
CCN1CCN(c2nc(N3CCCC3)c3cnn(C)c3n2)CC1
→ 1.1 | .
O=C(Nc1ccc(C(=O)NCc2cccnc2)cc1)C1=CSCCO1
→ 1.6 | .
CCOc1c(OC)cccc1C1C=C(C(=O)O)Nc2nnnn21 (centres undefined)
→ 1.8 | .
NC(=S)c1csc([N+](=O)[O-])c1
→ . | -0.79
O=S(=O)(c1ccc(Cl)cc1)N1CCCC(c2nc(-c3ccccn3)no2)C1 (centres undefined)
→ 2.2 | .
CCCN1CCN(CCCNc2ncnc3onc(C)c23)CC1
→ -0.29 | .
CCCCCn1c(=O)c(C2=NS(=O)(=O)c3ccccc3N2)c(O)c2ccccc21
→ 1.3 | .
COc1cccc(-c2nc(C(N)=O)c3[nH]c(=O)n(-c4ccc5c(c4)OCO5)c3n2)c1
→ -0.13 | .
COc1ccc(C(=O)Nc2c(C(C)(C)C)nn(C)c2C(C)(C)C)cc1
→ . | -1.7
S=c1cc(-c2ccccc2)oc2ccccc12
→ . | -2.3
O=C1N=C(N2CCCCC2)S/C1=C\c1ccc(-c2cc(Cl)ccc2Cl)o1
→ . | -0.04
O=C1Nc2cc(C(=O)N3CCN(c4ncccn4)CC3)ccc2N2CCCCC12 (centres undefined)
→ 0.51 | .
O=C(O)CCn1c(SCc2cc(=O)n3ccccc3n2)nc2ccsc2c1=O
→ . | -2.1
CC1=C(c2ccc(C)c(C)c2)S(=O)(=O)N=C1Nc1ccc(Br)cn1
→ 0.1 | -1.3
Cc1cc2c3c([nH]c2cc1S(=O)(=O)NCCN1CCCC1)CC(C)(C)CC3=O
→ -0.5 | .
COCCN1CN=C(Nc2nc(C)c3ccc(C)cc3n2)NC1
→ 0.25 | 2.5
Cn1c(=O)[nH]c(=O)c2c1nc(N1CCCC1)n2CCSc1nc2ccccc2[nH]1
→ . | -0.72
CCc1nnc2c(Nc3cc(OC)cc(OC)c3)nc3ccccc3n12
→ -3.2 | .
CC1=C(C(=O)OC2CCCCC2)C(c2ccccc2Br)C2=C(CCCC2=O)N1 (centres undefined)
→ -0.04 | -2
Cc1cc(C(=O)NC(C)c2ccccc2)c(C)o1 (centres undefined)
→ . | -0.05
COC(=O)c1ccc(C2CC(=O)Nc3c2c(=O)nc(SCc2ccc(C)cc2)n3C)cc1 (centres undefined)
→ 1.9 | 1.6
O=C(COc1ccccc1Br)c1ccc(O)cc1O
→ -0.31 | -2
CN(C)S(=O)(=O)c1cccc(N)c1
→ 1.2 | -0.01
COc1ccc(C2CC(=O)Nc3nc(N)[nH]c(=O)c32)cc1OC (centres undefined)
→ 2.8 | -1.8
Nc1c(-c2nc(-c3ccc(Br)cc3)cs2)nnn1Cc1ccccc1
→ 0.25 | -0.84
CN1CCN(c2ncc3c(n2)CCN(CCc2ccccc2)C3)CC1
→ 0.28 | .
Cc1ccc(C)c(N2CCN(C(=O)c3cnc4sc(N5CCOCC5)nn4c3=O)CC2)c1
→ 0.63 | .
N#CSc1ccc(NC(=O)C2=Cc3ccccc3OC=C2)cc1
→ 0.37 | -2.1
CC(=O)N1N=C(c2ccc(Br)cc2)OC1c1ccccc1Cl (centres undefined)
→ -4.5 | .
CSc1ncc(Cl)c(C(=O)Oc2ccc(Cl)c(C)c2)n1
→ 2.5 | -0.78
O=C1N(Cc2ccc(F)cc2)c2ccccc2S(=O)(=O)N1c1ccc(F)cc1
→ 0.21 | .
Cc1ccc(-c2nn3c(=O)cc(N4CCN(C(=O)c5ccc(Cl)cc5)CC4)nc3s2)cc1
→ 0.01 | .
COCCN1C(=O)C2C(C(=O)Nc3cccc(OC)c3)C3C=CC2(O3)C1C(=O)NC1CCCCC1 (centres undefined)
→ -0.45 | -0.04
COc1ccc(CSc2nc3ccncc3n2Cc2nc(-c3ccccc3)oc2C)cc1
→ 1.3 | -2.2
CC(C)NC(=O)NNC(=O)c1ccc[nH]1
→ . | -2.1
O=S(=O)(c1ccc2[nH]c3c(c2c1)CCCC3)N1CCCCC1
→ -0.42 | .
Cc1cc(C)n2c(Nc3ccccc3)c(-c3ccc(C)o3)nc2n1
→ -2.4 | -1.6
O=C1CC(=O)Nc2cc(S(=O)(=O)Nc3ccc(Cl)cc3)ccc2N1
→ 1.2 | -1.1
COc1ccc(C2CC(=O)Nc3cc4c(cc32)OCCO4)cc1OC (centres undefined)
→ . | -1.3
O=C(O)CN1C(=O)Nc2ccc(Br)cc2C1c1ccccc1 (centres undefined)
→ 0.54 | -3.2
CSC1=N/C(=C\C=C\c2cccs2)C(=O)S1
→ -5 | -1.4

Gathered by group, the entries above containing fluorine
Results follow in this order: TAR Tat displ | CDC25B-CDK2 inh
O=C(NCc1ccco1)NCc1cccn1Cc1cccc(F)c1
→ -0.82 | .
CCOC(=O)Cn1c(=O)n(CC2CCCO2)c2nc(-c3ccccc3F)nc(C(N)=O)c21 (centres undefined)
→ 0.31 | .
O=C1N(Cc2ccc(F)cc2)c2ccccc2S(=O)(=O)N1c1ccc(F)cc1
→ 0.21 | .

Next section:
Results follow in this order: TAR Tat displ | CDC25B-CDK2 inh
CCOC(=O)N1CCC(NC(=O)CSCc2nc(-c3sccc3C)oc2C)CC1
→ 1.6 | -1.1
CCOC(=O)C1CCN(S(=O)(=O)c2ccc3c(c2)NC(=O)C(C)S3)CC1 (centres undefined)
→ 3 | .
COc1ccccc1N1C(=O)C2ON(c3ccccc3C)C(c3cccc(Br)c3)C2C1=O (centres undefined)
→ -0.33 | -0.78
CN1c2ccccc2-c2nc(SCC(=O)Nc3cc(F)ccc3F)ncc2S1(=O)=O
→ -1.9 | .
COc1ccc(NC(=O)COCc2cc(-c3ccco3)on2)cc1
→ 0.92 | .
Cc1c(S(=O)(=O)c2ccc(Cl)cc2)csc1C(=O)Nc1nnc(C2CC2)s1
→ . | -1.7
CCOc1ccccc1NS(=O)(=O)c1ccc2c(c1)CC(=O)N2
→ 0.42 | -0.23
COc1cccc(-c2n[nH]c3c2C(c2ccc(O)cc2)N(C)C3=O)c1 (centres undefined)
→ 0.79 | 2.6
COc1ccc(NC(=O)C2=Cc3sc(C)c(C)c3CS2)cc1OC
→ 1.3 | .
O=C(CCCc1nnc2c(=O)n(-c3ccc(Cl)cc3)ccn12)NCc1ccco1
→ 0.54 | .
COc1ccc(-c2cc(C3CC3)nc(SCC(=O)O)c2C#N)cc1
→ . | -1.7
O=C(O)c1ccc(C2(c3ccc(C(=O)O)cc3)OC(=O)c3ccccc32)cc1
→ 1.9 | -0.6
Cc1cc(Br)cc2c(N=NC(=O)c3ccccc3)c(O)n(C)c12
→ . | -0.7
O=C(Cn1c(=O)oc2ccccc21)NCc1ccco1
→ . | -3.4
C#CCSc1nc2c(c(=O)[nH]1)C(c1ccc(OCCCC)cc1)CC(=O)N2 (centres undefined)
→ -0.97 | -1
Cc1cc(-c2ccc(S(=O)(=O)Nc3ccc(Br)c(C)c3)o2)n[nH]1
→ 0.91 | .
CCCCS(=O)(=O)N1CCC(c2nc3ccccc3s2)CC1
→ -0.54 | 0.63
COc1ccc(-c2c(C(F)(F)F)oc3cc(OCC(=O)OC(C)C)ccc3c2=O)cc1OC
→ 0.86 | -1.3
Cc1cc(N2CCCC2)nc(-n2cnc(SCCOc3ccccc3)n2)n1
→ 1.7 | -1.2
COC(=O)c1ccc(C(=O)OC)c(NC(=O)NC2(C(F)(F)F)Oc3ccc(Cl)cc3O2)c1 (centres undefined)
→ . | -0.24
COc1ccccc1-c1cc(N)n(S(=O)(=O)c2cc(Cl)sc2Cl)n1
→ . | 0.34
Cc1noc(C)c1N=Nc1cc(Cl)cc(Cl)c1
→ . | -0.79
Cc1ccsc1CCNC(=O)CC(C)S(=O)(=O)c1ccc2c(c1)NC(=O)C(C)S2 (centres undefined)
→ -3 | .
Nc1nc(-c2ccc(Cl)cc2)nn1S(=O)(=O)c1ccccc1
→ -1.1 | -0.77
CC1=C(c2ccccc2)S(=O)(=O)NC1=NCc1ccccn1
→ -0.47 | -1.1
CCOC(=O)C1CCN(C(=O)Cn2ncc3ccsc3c2=O)CC1
→ -1.2 | -1.4
CC(NC(=O)Nc1ccccc1Br)c1c(-n2cccc2)sc2c1CCCC2 (centres undefined)
→ 2.1 | -2.6
CC1CCCCC1NC(=O)C1CCN(C(=O)N2CCOc3ccc(Cl)cc32)CC1 (centres undefined)
→ 0.92 | .
Cc1ccc(S(=O)(=O)c2cn(Cc3ccc(Cl)cc3)c3cc4c(cc3c2=O)OCO4)cc1
→ 0.25 | -1.2
Nc1nc2c(c(NC(=O)Nc3ccccc3)n1)CCCC2
→ . | -0.59
CCCN1C(=O)C(O)(C2CC(=O)CC(C)(C)O2)c2ccccc21 (centres undefined)
→ . | -0.11
CCOC(=O)CN(C(=O)CSc1nc(C)cc(C)c1C#N)c1ccc(F)cc1
→ . | -1.3
O=c1ccc(-c2ccc(S(=O)(=O)NC3CCCCC3)o2)n[nH]1
→ 3.3 | .
CCc1nnc(NC(=O)c2cc(S(=O)(=O)N3CCc4ccccc43)cn2C)s1
→ 0.42 | -0.43
Cc1nnc2sc(COc3ccccc3Cl)nn12
→ -1.6 | -0.58
O=C(Nc1ccccc1)N(Cc1c[nH]c2ccccc12)C1CCCCC1
→ . | -2.4
C=C1CCC(C2CC(=O)OC2=O)C(=O)CCC2C1CC2(C)C (centres undefined)
→ 3.6 | .
CCOC(=O)c1cnn(C(=O)c2cnn(-c3ccc([N+](=O)[O-])cc3)c2C(F)(F)F)c1C(F)(F)F
→ . | 1
CCOC(=O)CC1=Nc2ccccc2NC(=O)C1
→ 0.99 | -2.5
CCCCN(CC)C(=O)Nc1ccc2c(c1)N(CC)C(=O)c1ccccc1S2
→ -1.8 | -0.52
CCOC(=O)c1c(NC(=O)Nc2ccc(F)cc2)sc(C(=O)N(C)C)c1C
→ 2.5 | -0.36
C=CCOc1ccc(C2c3c(oc4ccc(C)cc4c3=O)C(=O)N2c2ccccn2)cc1OC (centres undefined)
→ -0.17 | -1.7
CCCn1c2ccccc2c2cnn(CC(=O)NC3CCCc4ccccc43)c(=O)c21 (centres undefined)
→ 0.63 | .
O=C(COC(=O)c1ccccc1C(=O)c1ccc(-c2ccccc2)cc1)c1ccc(Cl)cc1
→ . | -14
CC(C)Cc1nc(N2CCOCC2)c(C#N)c2c1COC(C)(C)C2
→ -0.63 | -1.8
CCCC1NC(C)=[NH+][B-](c2ccccc2)(c2ccccc2)O1 (centres undefined)
→ . | -2.9
C/C=C/N1C(=S)NC2(O)c3ccccc3C(=O)C12O (centres undefined)
→ . | -2.9
NC(=O)c1ccc(S(=O)(=O)c2ccc(Cl)cc2)nc1
→ 0.19 | -0.09
CC(C)OC(=O)CSc1nc(-c2ccc(C(C)(C)C)cc2)c(C#N)c(=O)[nH]1
→ -1.4 | 0.31
CCC(Sc1ccccn1)C(=O)Nc1ccc(Cl)cn1 (centres undefined)
→ 1.4 | 0.24
Cn1cnc(S(=O)(=O)NCc2ccc(Br)cc2)c1
→ 1.2 | .
O=C(Cn1ncn2nc(-c3cccs3)cc2c1=O)NCc1ccccn1
→ 0.53 | -1.9
COc1ccc(S(=O)(=O)n2cnc3ccccc32)c(C)c1
→ 2.2 | 0.5
Cc1ccc(-n2nc(-c3noc(CCC(=O)O)n3)c(=O)n(C)c2=O)cc1
→ 1.3 | -0.39

Single records, from the list above.
`Cc1cc(C(=O)NC(C)c2ccccc2)c(C)o1` (centres undefined) as listed: TAR Tat displ: .; CDC25B-CDK2 inh: -0.05
`CCOC(=O)C1CCN(C(=O)Cn2ncc3ccsc3c2=O)CC1` as listed: TAR Tat displ: -1.2; CDC25B-CDK2 inh: -1.4
`O=C1N=C(N2CCCCC2)S/C1=C\c1ccc(-c2cc(Cl)ccc2Cl)o1` as listed: TAR Tat displ: .; CDC25B-CDK2 inh: -0.04
